Arbovirus anti: arbovirus infection inhibition; arbovirus infection cell-based antiviral screen; AID 1251; 200,000 compounds, 0.37% hits; inhibition, % at 10 µM;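 active = inhibition from about 30%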;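 note: bluetongue infection of BSR cells; cell survival read as ATP light after 72 h; 0% = infected wells without compound and 100% = uninfected wells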
Mtb bLac sens: beta-lactam sensitization of Mtb H37Rv. M. tuberculosis H37Rv growth with meropenem, percent inhibition; hits of this screen are not shown here. inhibition, % at 25 µM. 330,000 compounds, 0.27% hits;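 active = about 74% or more and at least 40 points above the plate without the antibiotic, then above 30% in a dose series; inconclusive = first-round hits that could not be retested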;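 note: growth measured after seven days incubation then overnight dye step; 0% = bacteria only wells and 100% = bacteria with antibiotic; twin plates without the antibiotic show which effects depend on it; some results filed as inactive read as strong as hits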
RecA intein inh: Mtb RecA intein splicing inhibition | cell-free RecA intein splicing, fluorescence | inhibition, %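 (about 9 µM by stock and volumes)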 | 290,000 compounds, 0.75% hits; in the data active = inhibition above about 30%; inconclusive = no clear call, values can overlap the other calls;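 note: 0% = vehicle wells and 100% = reference inhibitor control wells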
Target sequence (P9WHJ3 whole entry, looked up): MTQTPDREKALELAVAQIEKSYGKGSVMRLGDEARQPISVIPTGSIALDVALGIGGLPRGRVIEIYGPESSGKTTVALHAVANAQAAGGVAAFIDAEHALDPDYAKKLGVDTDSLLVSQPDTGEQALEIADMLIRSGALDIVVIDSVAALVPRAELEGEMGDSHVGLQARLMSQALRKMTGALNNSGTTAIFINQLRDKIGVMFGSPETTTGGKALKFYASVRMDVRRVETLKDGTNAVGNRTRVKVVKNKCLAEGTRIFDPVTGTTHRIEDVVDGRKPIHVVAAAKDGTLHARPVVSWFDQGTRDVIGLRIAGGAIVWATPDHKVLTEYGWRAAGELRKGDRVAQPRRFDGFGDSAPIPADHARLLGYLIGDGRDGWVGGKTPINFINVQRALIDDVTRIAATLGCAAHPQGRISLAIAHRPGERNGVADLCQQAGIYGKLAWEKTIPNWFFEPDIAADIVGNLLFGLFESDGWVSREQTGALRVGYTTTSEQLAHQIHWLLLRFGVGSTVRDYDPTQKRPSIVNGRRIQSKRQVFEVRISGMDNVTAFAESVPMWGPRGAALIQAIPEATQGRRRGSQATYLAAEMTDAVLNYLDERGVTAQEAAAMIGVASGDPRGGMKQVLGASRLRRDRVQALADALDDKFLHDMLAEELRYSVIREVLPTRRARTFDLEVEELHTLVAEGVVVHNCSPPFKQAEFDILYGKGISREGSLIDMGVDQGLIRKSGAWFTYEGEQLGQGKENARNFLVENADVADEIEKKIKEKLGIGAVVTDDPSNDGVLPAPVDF
Mtb H37Rv: M. tuberculosis H37Rv growth inhibitors, H37Rv strain (AID 1626). 220,000 compounds, 0.95% hits. M. tuberculosis H37Rv growth inhibition; higher % means a stronger effect. inhibition, % at 10 µM, or IC50 in µM where a hit was titrated;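 active = confirmed in a dose series; inconclusive = inhibition above 80% but not taken into the dose series; inactive = below 80% or under 30% at every dose of the series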;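 note: bacteria incubated seven days before Alamar blue readout; 0% = bacteria only wells and 100% = bacteria with antibiotic wells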
YopH PTP inh: YopH (Yersinia) phosphatase inhibition; fluorescence Ex485/Em525; inhibition, %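 (about 10 µM by stock and volumes)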; 140,000 compounds, 0.16% hits; AID 898;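 active = inhibition of 50% or more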;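 note: controls were vehicle for no effect and minimum signal wells for full effect; inactives centre near -20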
Arbovirus anti repeat: recorded beside Arbovirus anti, whose call it bears; inhibition, %; measured here: 10K subset replicate screen; many hits read low in the repeat;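 first of two repeat runs on a subset; 0% = infected and 100% = uninfected wells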
An asterisk follows results filed as active; ? = inconclusive; nt = no result given. A portion of the library; the hit share may differ from the screen's.

SMILES | Arbovirus anti | Mtb bLac sens | RecA intein inh | Mtb H37Rv | YopH PTP inh | others
Cc1c(OCC(=O)N2CCC(C(N)=O)CC2)ccc2c3c(c(=O)oc12)CCC3 | nt | 1 | -1.6 | nt | nt
O=C(NC(=S)Nc1ccc(Cl)c(C(=O)O)c1)c1ccco1 | nt | 3 | -3.7 | nt | nt
O=S(=O)(c1ccc(Cl)cc1)N1CCN(C2CCCCCC2)CC1 | -3 | -8 | 2.3 | -1% | -35
O=C(OC1CCOC1=O)c1ccc2ccccc2n1 (configuration not stated) | 0 | -21 | -0.6 | -9% | 1
CC12CCC(C(=O)N(CCCCN3CCN(Cc4ccccc4)CC3)C1=O)C2(C)C (configuration not stated) | nt | 1 | 3.9 | 0% | nt
COc1ccc(/C=N/n2c(-c3n[nH]c4c3CCC4)n[nH]c2=S)cc1OC | 2 | -4 | -1.0 | 2% | -26
COc1ccc(Cc2nc3ccccc3[nH]2)cc1OC | 2 | 0 | -0.1 | -8% | nt
CCCNC(=O)c1cccc(NC(=O)C(C)C)c1 | -2 | -5 | 2.6 | 4% | nt
CC(=O)c1ccc2c3c(ccc(O)c13)CC2 | 8 | 5 | -4.9 | -1% | -12 | Arbovirus anti repeat=4
CC(=O)Nc1ccc(OCCOc2ccc(/C=C3\C(=N)N4N=C(C)SC4=NC3=O)cc2)cc1 | nt | 7 | 7.8 | nt | nt
COc1ccc(NC2=C(c3ccc(OC)cc3)C(=O)c3ccccc32)cc1 | -13 | 32 | 3.1 | 10% | -10
CCC(CC)COC(=O)C1=C(C)NC(=O)NC1c1ccccc1Br (configuration not stated) | nt | 2 | -3.4 | nt | nt
CCC(=O)Nc1ccccc1C(=O)OCc1ccc(C(=O)c2ccccc2)cc1 | -6 | 73 | 2.8 | 27% | -28
CN(C(=O)COC(=O)/C=C/c1ccc2ccccc2n1)C1CCS(=O)(=O)C1 (configuration not stated) | 7 | -6 | 0.6 | 15% | nt
CCc1nnc(NC(=O)CSc2nnc(-c3ccncc3)n2C)s1 | 0 | 1 | 2.8 | -13% | 24
CN=C(Nc1ccc(Br)cc1)SC1CC(=O)N(c2ccc(OC)cc2)C1=O (configuration not stated) | 16 | 10 | 5.4 | -2% | nt
CN(C(=O)c1ccc(OC2CCN(CCc3ccccc3)CC2)cc1)C1CCOCC1 | 1 | -2 | 0.4 | -6% | nt
Cc1ccccc1C(=O)NNc1ccc([N+](=O)[O-])cc1 | -11 | 98 | 0.3 | ? | -6
N#Cc1nc(-c2ccco2)oc1N1CCOCC1 | 4 | -4 | -6.5 | -1% | -28
C[C@H](NC(=O)c1nc[nH]c1C(=O)NCCCCCNC(=O)OC(C)(C)C)C(=O)OCc1ccccc1 | -4 | -1 | 0.6 | -13% | nt
CCOC(=O)CC1=CC(=O)Nc2ccccc2N1 | -3 | -15 | -1.2 | 2% | -41
CC(C)COC(=O)n1ccc(C(=O)N2CCCCC2)n1 | 1 | -3 | -1.6 | -12% | -47
COC(=O)C(C)N(C#N)c1nc(C)cc(C)n1 (configuration not stated) | 6 | -1 | 0.3 | -4% | -18
CC(C)CNc1ncnc2c1cnn2Cc1ccc(Cl)cc1 | nt | 3 | 1.7 | 3% | nt
O=C(c1cc(F)cc2c1OCOC2)N1CCN(c2ccc(F)cc2)CC1 | nt | -5 | 2.4 | 6% | nt

By substructure, the entries above with four or more nitrogen atoms
SMILES | Arbovirus anti | Mtb bLac sens | RecA intein inh | Mtb H37Rv | YopH PTP inh | others
COc1ccc(/C=N/n2c(-c3n[nH]c4c3CCC4)n[nH]c2=S)cc1OC | 2 | -4 | -1.0 | 2% | -26
CC(=O)Nc1ccc(OCCOc2ccc(/C=C3\C(=N)N4N=C(C)SC4=NC3=O)cc2)cc1 | nt | 7 | 7.8 | nt | nt
CCc1nnc(NC(=O)CSc2nnc(-c3ccncc3)n2C)s1 | 0 | 1 | 2.8 | -13% | 24
C[C@H](NC(=O)c1nc[nH]c1C(=O)NCCCCCNC(=O)OC(C)(C)C)C(=O)OCc1ccccc1 | -4 | -1 | 0.6 | -13% | nt
COC(=O)C(C)N(C#N)c1nc(C)cc(C)n1 (configuration not stated) | 6 | -1 | 0.3 | -4% | -18
CC(C)CNc1ncnc2c1cnn2Cc1ccc(Cl)cc1 | nt | 3 | 1.7 | 3% | nt

Additional results
SMILES | Arbovirus anti | Mtb bLac sens | RecA intein inh | Mtb H37Rv | YopH PTP inh | others
Cc1ccc(OCC(=O)OCc2c(C)noc2C)cc1C | 4 | 0 | nt | 24% | -17
Cc1ccccc1OCC(=O)NNC(=O)CSc1nc(N)cc(N)n1 | -1 | 2 | -6.5 | 0% | nt
O=C(NC(=S)NNC(=O)c1ccccc1O)c1cccnc1 | 2 | 6 | 3.3 | -2% | nt
CC1(C)C/C(=N/Nc2ccc([N+](=O)[O-])cc2[N+](=O)[O-])C(C)(C)O1 | nt | -7 | 3.7 | nt | nt
COc1ccc2oc(C(=O)C3CC3)c(N)c2c1 | 1 | -6 | -5.9 | 6% | -23
O=S1(=O)CCOC[C@H](Cc2ccccc2)N1Cc1cccc(F)c1 | nt | -6 | 2.1 | 2% | nt
COc1ccc(C2CC(=O)C3=C(C2)Nc2ccccc2N(C(=O)CCC(=O)O)C3c2ccc(F)cc2)cc1OC (configuration not stated) | nt | -1 | -0.1 | 7% | nt
CCN(CC)CCn1c(-c2ccccc2)nc(=S)c2c1CC(C)(C)OC2 | 6 | 7 | -0.2 | 16% | -20
COc1ccc(CCN(CC(=O)NCc2ccc(F)cc2)C(=O)c2snc(C(N)=O)c2N)cc1OC | nt | 2 | -3.8 | nt | nt
O=C(O)COc1ccc2c(-c3ccccc3)cc(=O)oc2c1 | nt | 48 | 0.7 | -6% | -31
CCCC1Nc2ccc(C(=O)O)cc2C2C=CCC12 (configuration not stated) | 27 | -2 | -11 | 7% | -31
COc1cccc(-c2nc(CS(=O)(=O)CC(=O)N3CCc4ccccc43)c(C)o2)c1 | -1 | 2 | -0.8 | -3% | -55
COc1ccc(/C=C/C(=O)N(c2ccccn2)C2CCCCC2)cc1OC | 5 | 2 | 0.5 | 6% | nt
COc1cc2nc(CN3CCC(C(O)(c4ccccc4)c4ccccc4)CC3)[nH]c(=O)c2cc1OC | 4 | -8 | 1.6 | 2% | nt
Cc1cc(N2C(=O)C3C4c5ccccc5C(c5ccccc54)C3C2=O)no1 (configuration not stated) | 7 | -5 | 2.0 | -9% | 14 | Arbovirus anti repeat=6
O=C(NCNC(=O)c1ccccc1)c1ccccc1 | -4 | 1 | -0.5 | 7% | -2
CC(=O)c1cc2c(cc1NC(=O)c1ccccc1C)OCO2 | -1 | 0 | -2.2 | -6% | nt
COc1ccc(N2CCN(C(c3nnnn3CCc3ccccc3)C(C)C)CC2)cc1 (configuration not stated) | 0 | -1 | -0.6 | -1% | -30
CC(Oc1cccc(Cl)c1)C(=O)NCCCCc1ccccc1 (configuration not stated) | -1 | 2 | 6.8 | 4% | -9
Cc1cc(C(=O)OCC(=O)NC(=O)c2cccn2C)c2ccccc2n1 | nt | 1 | nt | 8% | nt
COc1ccc(CCNC(=O)C(=O)NCC2OCCN2S(=O)(=O)c2ccc(Br)cc2)cc1OC (configuration not stated) | 17 | 0 | -0.3 | -1% | -23
CN=C(Nc1cc(C)nn1-c1ccccc1)c1ccc(F)cc1 | -5 | 4 | -2.0 | -5% | -31
O=C(Cn1cc2c(n1)CCCCC2)NC1CCCCCC1 | 9 | -3 | 0.6 | 2% | -19 | Arbovirus anti repeat=-5
FC(F)(F)c1ccc(N2CCOCC2)c(NC2=NCCCCC2)c1 | 3 | -8 | 1.8 | -7% | -19
CN(CCOC(=O)c1ccc2c(c1)OCCO2)C(C)(C)C | 1 | -4 | 8.1 | 8% | 6

The list goes on.
SMILES | Arbovirus anti | Mtb bLac sens | RecA intein inh | Mtb H37Rv | YopH PTP inh | others
CCCc1nnc(NC(=O)CCC(=O)N2CCCCCC2)s1 | 11 | -17 | 1.6 | 4% | -28
CC(C)CN(c1ccccc1)S(=O)(=O)c1nnc(NC(=O)c2ccco2)s1 | nt | 0 | 2.5 | nt | nt
CC1(C)CC(=O)C(CCCN2C(=O)c3ccccc3C2=O)C(=O)C1 | 8 | -9 | 1.2 | -10% | -47
NS(=O)(=O)c1ccc(N=Cc2c(O)n(-c3nccs3)c(=O)c3ccccc23)cc1 | nt | -2 | -11 | -10% | nt
COc1ccc(OC)c(C(C)NC(=S)Nc2ccc(S(=O)(=O)Nc3ncccn3)cc2)c1 (configuration not stated) | nt | -3 | -1.0 | nt | nt
COc1ccc(OC)c(NC(=O)CSc2nc(=O)n(CCN3CCOCC3)c3c2CCCC3)c1 | nt | -3 | -1.0 | nt | nt
O=C(C1CCCN(Cc2ccccc2F)C1)N1CCc2ccccc2C1 (configuration not stated) | nt | -8 | 0.6 | 6% | nt
C/C(N)=C(/C#N)C(=O)CSc1nc(-c2ccccc2)c(-c2ccccc2)o1 | nt | 4 | -3.4 | nt | nt
CC(=O)Nc1cccc(NC(=O)c2c(-c3c(Cl)cccc3Cl)noc2C)c1 | -3 | -2 | nt | 5% | 5
O=C(O)CC(c1cccc2ccccc12)N1Cc2ccccc2C1=O (configuration not stated) | 0 | -3 | 1.4 | 3% | nt
Cn1cnnc1SCC(=O)N1CCc2ccccc21 | 1 | 3 | 1.8 | 1% | -26
COc1ccc(-c2cc(C(=O)N3CCN(C(c4ccccc4)c4ccccc4)CC3)no2)cc1OC | 19 | 62 | 2.4 | 13% | -28
COCC(=O)Nc1ccc(Br)cc1 | 0 | 24 | -2.9 | 8% | -6
CC(=O)Nc1ccc(S(=O)(=O)NCc2cccnc2)cc1 | 0 | 0 | -0.1 | 9% | -11
O=C1C2C3c4ccccc4C(c4ccccc43)C2C(=O)N1c1ccncc1 (configuration not stated) | 4 | nt | 0.4 | nt | nt
Cc1ccc(C)c(OCC(=O)Nc2cc(NC(=O)COc3cc(C)ccc3C)cc(C(=O)O)c2)c1 | nt | 2 | 0.8 | nt | nt
Cc1ccc(C(=O)OC2OC(=O)C(Cl)=C2N2CCOCC2)cc1 (configuration not stated) | 10 | 2 | -1.6 | -9% | -20
O=C(CSc1nc2ccccc2s1)N/N=C/c1ccccc1C(=O)O | nt | -6 | -0.3 | -6% | nt
CCCCCCCOC1(c2ccccc2)OC(=O)c2ccccc21 (configuration not stated) | 4 | 1 | 19 | -1% | -41
Cc1ccc(C(=O)c2cc([N+](=O)[O-])ccc2N2CCCCC2)cc1 | -14 | 6 | 14 | 7% | -22
COc1ccc(NC(=O)c2ccc3c(c2)NC(=O)CO3)cc1OC | -5 | -7 | nt | -5% | nt
CN1CCN(C(=O)C(Cc2ccccc2)NS(=O)(=O)c2ccc3c(c2)CCC(=O)N3)CC1 (configuration not stated) | 3 | -2 | nt | -4% | -47
CC(=O)c1ccc(OC(C)C)c(CN2CCCCC2)c1 | 0 | 1 | -4.2 | 4% | -5
O=C(Nc1ccccc1N1CCCC1)c1cccc(Cl)c1Cl | 1 | 94 | 3.4 | 0% | nt
O=C(COC(=O)C1CCN(S(=O)(=O)c2cccs2)CC1)NCc1ccccc1 | -1 | -5 | 1.7 | 1% | nt

In the list so far, six contain an aryl thioether with sulfur outside any ring.
SMILES | Arbovirus anti | Mtb bLac sens | RecA intein inh | Mtb H37Rv | YopH PTP inh | others
CCc1nnc(NC(=O)CSc2nnc(-c3ccncc3)n2C)s1 | 0 | 1 | 2.8 | -13% | 24
Cc1ccccc1OCC(=O)NNC(=O)CSc1nc(N)cc(N)n1 | -1 | 2 | -6.5 | 0% | nt
COc1ccc(OC)c(NC(=O)CSc2nc(=O)n(CCN3CCOCC3)c3c2CCCC3)c1 | nt | -3 | -1.0 | nt | nt
C/C(N)=C(/C#N)C(=O)CSc1nc(-c2ccccc2)c(-c2ccccc2)o1 | nt | 4 | -3.4 | nt | nt
Cn1cnnc1SCC(=O)N1CCc2ccccc21 | 1 | 3 | 1.8 | 1% | -26
O=C(CSc1nc2ccccc2s1)N/N=C/c1ccccc1C(=O)O | nt | -6 | -0.3 | -6% | nt

Remaining list, next part.
SMILES | Arbovirus anti | Mtb bLac sens | RecA intein inh | Mtb H37Rv | YopH PTP inh | others
CN(C)c1ccc(C(=O)OCC(=O)Nc2ccc(S(N)(=O)=O)cc2)cc1 | 3 | 4 | -2.4 | -5% | -25
CCC(CC)C(=O)Nc1nnc(-c2cccs2)s1 | 3 | -13 | 1.1 | 2% | -22
Cc1ccc2c(c1)Oc1ccc(NC(=O)CCCl)cc1C(=O)N2 | -3 | 1 | 2.8 | -2% | nt
Cc1cc(C(=O)CSc2nc(N)cc(=O)[nH]2)c(C)n1CCc1ccc(Cl)cc1 | 8 | -10 | 0.7 | -4% | 1
Cc1ccc(CNC(=O)CSc2nnnn2C)cc1 | 3 | 2 | -0.7 | 2% | -112
O=C(Nn1cnc2ccccc2c1=O)c1ccccc1F | nt | -5 | 3.4 | nt | nt
Cc1ccc(CNC(=O)c2ccc(C#CC(C)(C)O)s2)cc1 | 1 | 15 | -1.8 | 0% | -16
